# Assay outcomes: PubChem BioAssay, National Center for Advancing Translational Sciences (NCATS)
# gsp ag – gsp mutant agonism | gsp mutant cells, cAMP HTRF, 30 min; control for the full effect not named in the record | hit rate 0.13% among 340,000 | Potency, µM (titrated, usually from 76.9 µM), inactives show at the top dose activation (cAMP increase), hits mostly activators; active = well fitted activation curve with a large enough effect; inconclusive = small, poorly fitted or top-dose-only effect, or another doubt; inactive = no such curve, though single readings can be large or run the other way; cell line not stated here;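 also: phosphodiesterase inhibitor Ro 20-1724 added with compounds to block cAMP breakdown; potency is read from the fitted curve at half-maximal effect; nearly all actives have a fitted effect of over 60% in size; about a fifth of the inactives were tested at one dose only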
#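 Cells stably selected in G418 were plated at 2000/well, grown 16-24 hr, then given compounds in DMSO with the PDE inhibitor […] (300 uM solution added) for 30 min at 37C; cAMP was read by HTRF.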
# TRPV1 PAM – enhances activation of the human vanilloid receptor TRPV1; Q8NER1; TRPV1-expressing cells, Fluo-8 calcium influx, capsaicin EC20 potentiation; host cell line not named in the record; control for the full effect not named in the record; hit rate 0.02% among 320,000; potentiation, % at 8.33 µM; AID 540277; active means potentiation above 80%; inconclusive means 30% to 80%; inactive means below 30%; also: 0% is about no effect
#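 TRPV1-expressing cells were cultured overnight at 35.5C and loaded with Fluo-8 calcium dye for 40 to 90 min at room temperature. After a 10 s baseline, compound was added and calcium influx was read kinetically for 3 min (ex 480/em 520 nm).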
# Menin-MLL FL inh – menin-MLL binding inhibition, fluorescein peptide. 290,000 tested, under 10 active. FP activity change, % at 61.4 µM. AID 1766. Fluorescence polarization, fluorescein-MLL peptide displacement from menin; inconclusive = falling polarisation curve, or a change in total fluorescence; inactive = total fluorescence flat and polarisation flat or rising; no compound was filed as active; the % refers to the polarisation; negative = inhibition;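 also: % of control where 0% means no effect; inhibitors lower the polarisation; unlabelled MLL peptide was the positive control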
# ClpP mod – qHTS Assay for Activators of ClpP | hit rate 1.9% among 340,000 | Potency, µM (titrated, usually from 57.5 µM), without a hit: top-dose activity change, negative = active | purified B. subtilis ClpP, FRET peptide cleavage, 20 min | ATP-dependent Clp protease proteolytic subunit (Bacillus subtilis (strain 168)), P80244 | AID 651965, 2013; active = well fitted falling curve with a large enough effect; inconclusive = small, poorly fitted or top-dose-only effect; inactive = no such curve, though single readings can be large or run the other way; also: potency is read from the fitted curve at half-maximal effect; the source files actives as falling curves though it sought activators and does not explain the sign; nearly all actives have a fitted effect of over 65% in size; many hits overshoot -100%
# Target sequence (P80244 whole entry, looked up): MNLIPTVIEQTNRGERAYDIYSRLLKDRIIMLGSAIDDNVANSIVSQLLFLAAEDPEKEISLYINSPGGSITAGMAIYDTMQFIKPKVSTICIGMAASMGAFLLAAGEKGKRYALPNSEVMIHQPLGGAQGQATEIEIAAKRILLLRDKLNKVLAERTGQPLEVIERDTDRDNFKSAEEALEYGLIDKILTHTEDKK
#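 ClpP 10 microg/mL final, pH 8 Tris/KCl buffer with BSA, glycerol, Tween-20; compound pinned in; FRET-FV substrate; RT 20 min; Ex320/Em430; ΔFRET vs ADEP 5.8 microM, DMSO, no enzyme.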
# Sfp inh – blocks B. subtilis Sfp PPTase activity. Biochemical Sfp PPTase activity, qHTS. Potency, µM, inactives show max response, negative = inhibition, actives largely listed as inhibitors. AID 1490. hit rate 3.5% among 310,000; active = well fitted inhibition curve with a large enough effect; inconclusive = small, poorly fitted or top-dose-only effect, or another doubt; inactive = no such curve, though single readings can be large or run the other way;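 also: the enzyme is Sfp with the accession as filed and its product quenches rhodamine fluorescence; potency is read from the fitted curve at half-maximal effect; 0% = enzyme reaction without inhibitor and -100% = no enzyme wells; top concentration of the series not given in the record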
#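 Buffer: 50 mM Hepes-Na pH 7.6, 10 mM MgCl2, 0.01% Nonidet P-40, 0.01% BSA. Enzyme 15 nM, pre-exposed to compound 15 min; substrates then added and fluorescence change tracked over 30 min.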
# gsp antag – antagonizes gsp, the McCune-Albright syndrome mutation | gsp-mutant cells, cAMP HTRF, 30 min; control for the full effect not named in the record | Potency, µM (series often up to 76.9 µM), for the others: top-dose activity change, negative = inhibition, usual class: inhibitors | hit rate 0.4% among 340,000; active = falling curve of any shape with a large fitted effect; inconclusive = falling curve, mostly with a smaller effect; inactive = flat or rising curve; cell line not stated here;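 also: intracellular cAMP measured with PDE inhibitor Ro 20-1724 present during compound exposure; potency is read from the fitted curve at half-maximal effect; % is scaled to controls: 0 for no effect and ±100 for the full control effect; nearly all actives have a fitted effect of over 65% in size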
#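 Cells, 2000/well, grown 16–24 h in DMEM 10% FBS with 0.5 mg/ml G418, then compounds plus […] (300 uM addition stock), 30 min at 37C. cAMP read by HTRF (cAMP-d2 and anti-cAMP antibody-K in lysis buffer) after 30 min RT.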
# D2 potentiator – potentiates the human D2 dopamine receptor allosterically; P14416; DiscoveRx D2 beta-arrestin cells, luminescence, 90 min; 100% = 57 uM dopamine signal; potentiation, % (concentration not given with the values); hit rate 0.23% among 360,000; active = potentiation of 50% or more; inconclusive = 30% to 50%; inactive = 30% or less;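 also: compound concentration not given in the record; tested on top of an EC20 dose of dopamine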
# Target sequence (P14416 whole entry, looked up): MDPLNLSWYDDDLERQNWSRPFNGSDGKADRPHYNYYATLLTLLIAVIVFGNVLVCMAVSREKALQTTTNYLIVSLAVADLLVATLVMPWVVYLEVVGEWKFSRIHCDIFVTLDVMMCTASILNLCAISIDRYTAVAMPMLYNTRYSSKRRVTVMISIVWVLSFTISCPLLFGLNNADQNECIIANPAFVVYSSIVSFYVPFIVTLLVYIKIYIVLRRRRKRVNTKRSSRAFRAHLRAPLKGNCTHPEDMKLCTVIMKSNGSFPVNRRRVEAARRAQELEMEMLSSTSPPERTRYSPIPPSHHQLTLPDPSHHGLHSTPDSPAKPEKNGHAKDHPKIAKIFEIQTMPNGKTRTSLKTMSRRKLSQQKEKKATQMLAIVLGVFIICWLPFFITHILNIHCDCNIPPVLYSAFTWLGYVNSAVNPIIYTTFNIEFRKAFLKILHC
#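 PathHunter beta-arrestin assay in DiscoveRx D2 cells. Compounds were added with an EC20 of dopamine (50 nM final) for 90 min at 37 deg C. Luminescence was read 1 h after detection reagent, with 57 uM dopamine as the EC100 control.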
# An asterisk follows results filed as active; ? = inconclusive; . = not tested or not shown; ! = repeats disagree; [ ] = another dose, or the depositor's remark.
SMILES,gsp ag,TRPV1 PAM,Menin-MLL FL inh,ClpP mod,Sfp inh,gsp antag,D2 potentiator
NC(=O)[C@@H]1CCNc2c(I)cc([N+](=O)[O-])cc2C(=O)N[C@@H](CO)C(=O)N[C@@H](Cc2ccc(O)cc2)C(=O)N1,.,-4,2.1,.,-2%,.,.
CN(CC(=O)Nc1ccc(F)c(F)c1F)C(=O)C1CCCCC1,-22%,.,.,1.0%,.,8%,-3
CC(C)c1ccc(NC(=O)Nc2cnccn2)cc1,11%,-6,.,-12%,-2%,12%,-19
N#Cc1cc(-c2ccccc2)nnc1Sc1ccc(F)cc1,2%,-8,2.9,0.9%,8%,?,-11
Cc1cccc(NS(=O)(=O)c2ccc(S(=O)(=O)N3CCCC3)cc2)c1,-95%[inhibitor],.,.,-1.2%,.,.,-11
CCC(C)n1c(C)nc2c(c1=O)c1nc3ccccc3nc1n2-c1ccc2c(c1)OCCO2 (stereo unspecified),.,-9,1.8,.,13%,.,.
CCOc1ccc2nc(NC(=O)CCC(=O)c3cccs3)sc2c1,-55%[inhibitor],-11,0.4,1.2%,0%,2%,-4
Cc1cccc(CSc2nnc(Cn3c(=O)sc4ccccc43)n2C)c1,-37%[inhibitor],-6,5.4,-1.6%,10%,4%,-4
Cc1c(NC(=O)COC(=O)c2ccc(S(=O)(=O)N3CCOCC3)cc2)c(=O)n(-c2ccccc2)n1C,11%[15.4 µM],18,0.6,-0.5%,21%,-3%,-2
CCOC(=O)C(=O)Nc1nnc(Cc2ccc(OC)c(OC)c2)s1,-69%[inhibitor],9,5.8,1.2%,10%,-24%,10
C=CCOc1ccc(/C=C2/C(=O)ON=C2C)cc1OCC,-11%[15.4 µM],-4,-3.1,0.8%,?,-2%,-2
O=C(CC1CCC1)Nc1cccc2c([N+](=O)[O-])cccc12,4%,.,.,.,.,-4%,-4

# Results in gsp ag (4 entries from above):
SMILES	gsp ag
Cc1cccc(CSc2nnc(Cn3c(=O)sc4ccccc43)n2C)c1	-37%[inhibitor]
Cc1c(NC(=O)COC(=O)c2ccc(S(=O)(=O)N3CCOCC3)cc2)c(=O)n(-c2ccccc2)n1C	11%[15.4 µM]
CCOC(=O)C(=O)Nc1nnc(Cc2ccc(OC)c(OC)c2)s1	-69%[inhibitor]
C=CCOc1ccc(/C=C2/C(=O)ON=C2C)cc1OCC	-11%[15.4 µM]

# Next part:
SMILES,gsp ag,TRPV1 PAM,Menin-MLL FL inh,ClpP mod,Sfp inh,gsp antag,D2 potentiator
COc1ccc(/C=C/CN2CCN(CCc3ccccc3)C(CCO)C2)cc1 (stereo unspecified),-12%,4,-2.4,-5.1%,-1%,4%,-29
COc1ccc(NC(=O)CC(C)C)c(OC)c1,-16%,17,2.4,-4.7%,-1%,8%,-4
COc1cc(/C=C2\Oc3ccc(C#Cc4ccc(O)cc4)cc3C2=O)cc(OC)c1,.,.,.,-4.0%,.,7%,-8
COc1ccccc1NS(=O)(=O)c1ccc2oc(SC3CCOC3=O)nc2c1 (stereo unspecified),?,8,3.0,-2.4%,-9%,-9%,-8
COc1ccccc1OCC(=O)NCC1CCCN(C(=O)c2ccccc2C(C)=O)C1 (stereo unspecified),-15%,4,0.2,0.8%,7%,-10%,17
Cc1cc(/C(N)=N/OC(=O)c2ccc(Cl)cc2)no1,-71%[inhibitor],-2,-3.3,.,14%,7%,-4
COc1cc(C(=O)N(C)CC(=O)Nc2cccc(F)c2)ccc1OCc1ccccc1,-2%,10,.,-3.1%,.,-4%,-6
Cc1cc(N2CCCc3ccccc32)n2ncnc2n1,-10%,-9,-3.2,-0.2%,9%,6%,1
NC1=NC(=O)/C(=C/c2ccsc2)S1,10%[15.4 µM],0,9.6,0.6%,11%,-2%,-3
CC(CC(=O)NC1CCCCC1)S(=O)(=O)c1ccc2c(c1)NC(=O)CO2 (stereo unspecified),-11%,-2,3.4,0.3%,7%,2%,-13
CCCCC1=CC2=CC(=O)C(C)(OC(=O)c3cnc4ccccc4n3)C(=O)C2=CO1 (stereo unspecified),.,?,?,.,79µM*!,.,.
CC1(C)CC(=O)C=C(Nc2ccc(Cl)c(Br)c2)C1,-6%[15.4 µM],-7,5.9,-0.7%,12%,-33%,-10
O=C(CC(=O)c1ccccc1O)c1cccc(F)c1,-34%,-1,-1.6,-1.6%,19%,-25%,-24
Oc1ccc(Cl)cc1CNCc1ccc(F)c(F)c1,?,7,.,0.1%,.,5%,-27
COC(=O)c1ccc(C2C(C(=O)Nc3ccccc3C)=C(C)Nc3ncnn32)cc1 (stereo unspecified),-29%,1,2.0,-1.5%,9%,5%,-10
Cc1ccc(C)c(S(=O)(=O)c2c(C)cc(C)[nH]c2=O)c1,13%,-5,-1.3,-12%,8%,1%,-3
O=C(COC(=O)CSc1ccccc1)Nc1ccc(F)cc1F,-37%[inhibitor],.,.,1.2%,.,1%,-3
O=C1CCc2ccccc2N1Cc1ccccc1,-2%[15.4 µM],-2,2.8,0.7%,5%,12%,-4
COc1cc(CCC(=O)N2CCN(c3cccc(C)c3C)CC2)cc(OC)c1OC,-47%[inhibitor],0,-4.1,.,6%,-20%,-5
Cc1ccc(C(=O)NC(=S)N2CCCC2)cc1,14%,9,.,-0.5%,7%,16%,2
CCc1ccc2nc(NC(=O)C3CCN(c4ncnc5sc(C)c(C)c45)CC3)sc2c1,4%,1,.,-17%,.,-16%,-3
C=C(C)c1cccc(C(C)(C)NC(=O)Nc2cc(C)ccn2)c1,?,-7,-0.9,0.8%,7%,-58%,-3
Cc1cccc(NS(=O)(=O)c2ccc3[nH]c(=O)[nH]c3c2)c1C,-11%[15.4 µM],-1,-3.0,-0.8%,4%,11%,-7
COc1ccc(/C=C/C(=O)N(C)CC(=O)Nc2cccc(F)c2)cc1S(=O)(=O)N1CCCCC1,4%,6,.,0.8%,.,-9%,-29
O=C(CSC(=S)N1CCCCC1)Nc1nc(-c2ccccc2)c(-c2ccccc2)o1,-20%,11,-0.2,-7.7%,29%,-2%,0
Cc1noc(/C=C/N(C)C)c1S(=O)(=O)N1CCCC(C(=O)NCc2ccccc2Cl)C1 (stereo unspecified),3%,5,6.3,-0.2%,12%,-17%,-16
Cc1ccc(C)c(OCCC(=O)OCC(=O)Nc2ccc(N3CCOCC3)cc2)c1,-5%[15.4 µM],?,.,.,.,2%,-12
O=C(O)CCCC(=O)N1CCc2cc(S(=O)(=O)N3CCc4ccccc43)ccc21,4%,2,-1.3,-0.6%,-4%,-16%,-5
O=C(COc1ccc(Br)cc1F)NC1CC1,1%[15.4 µM],.,.,-1.8%,.,-9%,-10
COc1ccc(CCNC(=O)C(C)SCC(=O)Nc2ccc(F)cc2)cc1 (stereo unspecified),-3%,.,.,.,.,0%,-9
CSc1ccccc1OCc1cc(C(=O)N(C)C2CCCc3ccccc32)no1 (stereo unspecified),-31%[inhibitor],7,.,3.0%,7%,-11%,-16
CC(C)n1cc(CN2CCC(n3nccc3NC(=O)Cc3ccccc3)CC2)cn1,-5%,-6,.,1.5%,17%,-9%,-7
COc1cccc(C(=O)NN2C(=O)C3C4C=CC(O4)C3C2=O)c1 (stereo unspecified),-10%,-1,-0.6,-3.3%,?,6%,0
O=C(NCc1ccc2[nH]c3c(c2c1)CCCC3)c1ccc(S(=O)(=O)N2CCCCC2)cc1,-26%,8,12,-3.5%,8%,1%,-3
COCCNC(=O)CN1C(=O)CC(C)(C)S(=O)(=O)c2ccccc21,-1%,2,0.0,0.5%,15%,8%,-3
COc1cccc(N2CN(C3CCCCC3)CNC2=S)c1,-12%[15.4 µM],6,-0.1,.,14%,9%,-1
COc1cccc(C(=O)COC(=O)C(C)N2C(=O)C3C4C=CC(C4)C3C2=O)c1 (stereo unspecified),5%,11,1.3,1.0%,16%,2%,0
CCN1CCSc2ccc(C(=O)Nc3ccc(NC(C)=O)cc3)cc21,-19%,0,2.3,-28%,-8%,2%,-2
O=C(O)c1ccc2c(c1)C(=O)N(c1nccs1)C2=O,8%[15.4 µM],-17,-1.2,.,5%,-2%,-7
CCOC(=O)c1cn(Cc2ccccc2)c(C(=O)OC(C)(C)C)c1O,12%,.,.,-4.1%,.,-4%,-8
COc1ccc(-c2cn3c(C)c(C(=O)Nc4cc(NC(C)=O)ccc4OC)sc3n2)cc1,0%,2,14,?,79µM*,0%,-5
CCCCC(=O)NCCc1cc2c(C)ccc(C)c2[nH]c1=O,2%,.,.,-15%,.,6%,-10
Cn1c(Cn2c(=O)sc3ccccc32)nnc1SCC(=O)N1CCCc2ccccc21,-1%,3,1.9,0.2%,7%,-8%,-2
Cc1cc(C(=O)NC(C)CCC(C)C)c2ccccc2n1 (stereo unspecified),3%,-3,0.3,-2.5%,7%,-1%,0
CCc1c(C)sc(NC(=S)N2CCN(C(=O)C3CCCO3)CC2)c1C(=O)OC (stereo unspecified),-23%,10,.,-1.8%,-24%,-18%,2
COc1cc(O)c(C(CC(=O)N2CCCC(C)C2)c2ccc(N(C)C)cc2)c(OC)c1 (stereo unspecified),.,-15,5.8,-1.9%,0%,-11%,-11
Cc1ccc(C(=O)CCC(=O)Nc2ccc(C)cn2)cc1,3%,-41,.,-3.7%,.,5%,-2
CCn1c(SCC(=O)OC2CCCCC2)nnc1-c1ccncc1,-8%,-4,1.1,-4.9%,13%,-11%,4
CSc1nnc(SCC(=O)NC(=O)c2ccccc2)s1,-23%,0,.,-13%,.,5%,0
O=S(=O)(c1ccccc1)c1cnc(-c2ccccc2)nc1N1CCCC1,-274%[inhibitor],1,0.8,-17%,-14%,-19%,-6
Cc1c(C#N)c(NC(=O)CCl)n(Cc2ccccc2)c1C,2%[15.4 µM],0,-15,.,8%,.,-9
Nc1cc(=O)[nH]c(SCCSc2ccccc2)n1,5%,13,0.9,-0.3%,11%,9%,1
O=C1C(Cl)=C(NCCCN2CCOCC2)C(=O)c2ccccc21,8%,.,.,.,.,-21%,1
